# TRPV1 PAM = potentiators of human vanilloid receptor 1 (TRPV1). Q8NER1. TRPV1-expressing cells, Fluo-8 calcium influx, capsaicin EC20 potentiation; host cell line not named in the record; control for the full effect not named in the record. potentiation, % at 8.33 µM. 0.02% of 320,000 active; active means potentiation above 80%; inconclusive means 30% to 80%; inactive means below 30%; note: 0% is about no effect
# Target sequence (Q8NER1 whole entry, looked up): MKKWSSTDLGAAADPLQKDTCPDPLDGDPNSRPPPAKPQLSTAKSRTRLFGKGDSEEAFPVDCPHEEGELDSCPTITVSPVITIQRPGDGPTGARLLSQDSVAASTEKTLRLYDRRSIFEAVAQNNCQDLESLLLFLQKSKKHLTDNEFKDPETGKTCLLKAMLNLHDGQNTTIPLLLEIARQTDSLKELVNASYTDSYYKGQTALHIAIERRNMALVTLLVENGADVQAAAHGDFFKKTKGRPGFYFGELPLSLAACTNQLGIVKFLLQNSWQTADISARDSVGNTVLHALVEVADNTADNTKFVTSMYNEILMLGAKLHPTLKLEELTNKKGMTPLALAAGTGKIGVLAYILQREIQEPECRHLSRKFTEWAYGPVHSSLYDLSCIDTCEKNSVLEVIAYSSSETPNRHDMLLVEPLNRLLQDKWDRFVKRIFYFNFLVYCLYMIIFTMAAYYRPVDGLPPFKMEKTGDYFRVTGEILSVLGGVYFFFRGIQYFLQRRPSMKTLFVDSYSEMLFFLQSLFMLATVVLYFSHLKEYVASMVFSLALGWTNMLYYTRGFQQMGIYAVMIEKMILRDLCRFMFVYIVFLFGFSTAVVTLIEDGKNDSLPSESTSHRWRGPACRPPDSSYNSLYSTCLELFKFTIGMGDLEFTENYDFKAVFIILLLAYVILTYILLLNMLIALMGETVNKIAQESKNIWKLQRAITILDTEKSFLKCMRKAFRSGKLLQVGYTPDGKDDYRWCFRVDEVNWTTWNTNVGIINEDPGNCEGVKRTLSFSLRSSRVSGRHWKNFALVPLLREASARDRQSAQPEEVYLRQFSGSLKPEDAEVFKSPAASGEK
#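 TRPV1-expressing cells were cultured overnight at 35.5C and loaded with Fluo-8 calcium dye for 40 to 90 min at room temperature. After a 10 s baseline, compound was added and calcium influx was read kinetically for 3 min (ex 480/em 520 nm).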
# TRPML1 inh = human mucolipin-1 channel inhibition; Q9GZU1; TRPML1-inducible cells, Ca2+ dye fluorescence, FDSS; stronger effect = lower value; inhibition of EC80 agonist-evoked calcium signal; activity change, negative = inhibition, % (test concentration not listed); 0.02% of 390,000 active; AID 624415; in the data active means activity change below about -50%; inconclusive means about -30% to -50%; inactive means above about -30%;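 note: stimulus is agonist 54-4 at its EC80 concentration; % is set by controls: 0 for no effect and ±100 for the full control effect; compound concentration not given in the record; the text of the record puts the active cut at -80%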
#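 Calcium fluorescence in TRPML1-DL cells induced overnight with Tet: a 110 s read after compound pin addition, then a 110 s antagonist read after challenge with 54-4 at 4 uM final (EC80).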
# gsp agonist = agonists of gsp mutant (McCune-Albright syndrome); gsp mutant cells, cAMP HTRF, 30 min; control for the full effect not named in the record; Potency, µM (series often up to 76.9 µM), without a hit: top-dose activation (cAMP increase), usual class: activators; 0.13% of 340,000 active; active = well fitted activation curve with a large enough effect; inconclusive = small, poorly fitted or top-dose-only effect, or another doubt; inactive = no such curve, though single readings can be large or run the other way; cell line not stated here;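 note: phosphodiesterase inhibitor Ro 20-1724 added with compounds to block cAMP breakdown; potency is the fitted concentration of half-maximal effect; nearly all actives have a fitted effect of over 60% in size; about a fifth of the inactives were tested at one dose only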
#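 Cells in DMEM/10% FBS with G418 were pretreated with compounds in DMSO plus […] (300 uM stock) for 30 min at 37C. cAMP was measured by HTRF (cAMP-d2 plus anti-cAMP antibody-K) after 30 min at room temperature.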
# Menin MLL FP FL = menin-MLL binding inhibition, fluorescein peptide. AID 1766. Fluorescence polarization, fluorescein-MLL peptide displacement from menin. FP activity change, % at 61.4 µM. 290,000 tested, under 10 active; inconclusive = falling polarisation curve, or a change in total fluorescence; inactive = total fluorescence flat and polarisation flat or rising; no compound was filed as active; the % refers to the polarisation; negative = inhibition;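 note: % of control where 0% means no effect; inhibitors lower the polarisation; unlabelled MLL peptide was the positive control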
# ClpP mod = qHTS Assay for Activators of ClpP | AID 651965, 2013 | purified B. subtilis ClpP, FRET peptide cleavage, 20 min | 1.9% of 340,000 active | Potency, µM (series often up to 57.5 µM), for the others: top-dose activity change, negative = active | ATP-dependent Clp protease proteolytic subunit (Bacillus subtilis (strain 168)), P80244; active = well fitted falling curve with a large enough effect; inconclusive = small, poorly fitted or top-dose-only effect; inactive = no such curve, though single readings can be large or run the other way; note: potency is the fitted concentration of half-maximal effect; the source files actives as falling curves though it sought activators and does not explain the sign; nearly all actives have a fitted effect of over 65% in size; many hits overshoot -100%
# Target sequence (P80244 whole entry, looked up): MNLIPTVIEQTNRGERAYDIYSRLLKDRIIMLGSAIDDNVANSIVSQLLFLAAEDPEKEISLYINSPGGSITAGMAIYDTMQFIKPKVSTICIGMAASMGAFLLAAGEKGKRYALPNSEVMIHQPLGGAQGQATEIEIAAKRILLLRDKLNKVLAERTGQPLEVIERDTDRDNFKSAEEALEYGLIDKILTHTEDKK
#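 ClpP 10 microg/mL final, pH 8 Tris/KCl buffer with BSA, glycerol, Tween-20; compound pinned in; FRET-FV substrate; RT 20 min; Ex320/Em430; ΔFRET vs ADEP 5.8 microM, DMSO, no enzyme.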
# gsp antag = antagonizes gsp, the McCune-Albright syndrome mutation | Potency, µM (top dose mostly 76.9 µM), for inactives: at the top dose activity change, negative = inhibition, usual class: inhibitors | 0.4% of 340,000 active | gsp-mutant cells, cAMP HTRF, 30 min; control for the full effect not named in the record | AID 624288; active = falling curve of any shape with a large fitted effect; inconclusive = falling curve, mostly with a smaller effect; inactive = flat or rising curve; cell line not stated here;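 note: intracellular cAMP measured with PDE inhibitor Ro 20-1724 present during compound exposure; potency is the fitted concentration of half-maximal effect; % is set by controls: 0 for no effect and ±100 for the full control effect; nearly all actives have a fitted effect of over 65% in size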
#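 G418-selected cells were plated in DMEM/10% FBS for 16-24 h at 37C, then treated with compounds plus the PDE inhibitor […] (300 uM solution added) for 30 min at 37C. Intracellular cAMP was measured by HTRF after 30 min lysis at room temperature.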
# Sfp PPTase inh = inhibitors of Bacillus subtilis Sfp phosphopantetheinyl transferase; Q9F4F7; Biochemical Sfp PPTase activity, qHTS; Potency, µM, without a hit: max response, negative = inhibition, most hits filed as inhibitors; 3.5% of 310,000 active; active = well fitted inhibition curve with a large enough effect; inconclusive = small, poorly fitted or top-dose-only effect, or another doubt; inactive = no such curve, though single readings can be large or run the other way;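 note: the enzyme is Sfp with the accession as filed and its product quenches rhodamine fluorescence; potency is the fitted concentration of half-maximal effect; 0% = enzyme reaction without inhibitor and -100% = no enzyme wells; top concentration of the series not given in the record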
#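 Fluorescence-quenching assay: 15 nM Sfp-PPTase preincubated 15 min at room temperature with compound, then 5 uM rhodamine-CoA and 12.5 uM BHQ-2-labelled YbbR peptide added. Fluorescence (ex 525/em 598 nm) read at start and after 30 min; difference gives rate.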
# * = called active by the depositor; ? = inconclusive; nt = not tested or not shown; & = joins results of further samples; [ ] = remark or other dose.
SMILES,TRPV1 PAM,TRPML1 inh,gsp agonist,Menin MLL FP FL,ClpP mod,gsp antag,Sfp PPTase inh
CC1(C)C(c2ccccc2)=NC(c2ccc(F)cc2)N1O (centres undefined),9,19,-10%,0.3,0.4%,-3%,7%
Cc1ccc(/C=C2\SC(=S)N(CCC(=O)NNC(=O)c3ccncc3)C2=O)cc1,1,2,-8%[15.4 µM],-1.7,0.6%,40µM*,-12%
CCOc1ccc(C(C)NC(=O)c2ccccc2OCc2c(C)noc2C)cc1OCC (centres undefined),0,10,0%,nt,-5.4%,-10%,10%
O=C(Nc1ccc(N2CCN(C(=O)c3ccco3)CC2)c(Cl)c1)c1cccnc1,-8,7,0%[15.4 µM],-0.3,nt,-8%,15%
CSc1ncccc1C(=O)OCc1ccc([N+](=O)[O-])cc1,?,2,2%,1.1,nt,2%,14%
CCOC(=O)[C@H]1[C@H]2COc3ccc(OC)cc3[C@@H]2N2C(=O)c3cc(C)ccc3NC(=O)[C@@]12C,12,28,?,nt,-2.1%,-8%,nt
COc1ccc(S(=O)(=O)N2CCCCC2)cc1NC(=O)CCc1cc(OC)c(OC)c(OC)c1,nt,11,6%,nt,3.1%,-9%,nt
O=C(Nc1cccc(Br)c1)c1ccn[nH]1,1,-10,-14%,4.9,-1.7%,-8%,13%
COc1ccc(Cc2nnc3sc(SCC(=O)Nc4ccccc4)nn3c2=O)cc1OC,1,1,-2%[15.4 µM],nt,0.6%,-14%,nt
Clc1cccc(-c2nnc(-c3ccccc3)o2)c1,16,1,8%,3.4,-11%,9%,-3%
COc1cccc(C(c2nnnn2CS(=O)(=O)c2ccc(C)cc2)N2CCN(C)CC2)c1OC (centres undefined),?,-6,12%,-5.8,1.2%,4%,16%
Cn1c(NCCN2CCOCC2)nc2c1c(=O)n(Cc1cccc(Cl)c1)c(=O)n2C,-18,11,-4%,-1.0,3.2µM*,-5%,3%
O=C(NCCCN1CCOCC1)c1ccc(S(=O)(=O)Nc2cccc(C(F)(F)F)c2)cc1,8,4,14%[15.4 µM],nt,nt,5%,nt
CC(C)c1ccc(NC(=O)CSc2nnc(CN3CCOCC3)n2C)cc1,-1,-4,-6%[15.4 µM],2.0,nt,9%,19%
Cc1nc2c(=O)[nH]c(=S)n(C)c2nc1C,8,29,-1%,-6.3,-0.5%,3%,4.5µM*
C/C(=N\Nc1cc(C)nc(NCc2ccccc2)n1)c1ccc([N+](=O)[O-])cc1,-1,13,30%,3.5,0.6%,15%,12%
CCOC(=O)C1(Cc2cccc(Cl)c2)CCCN(C2CCN(C(C)=O)CC2)C1 (centres undefined),-20,-6,1%[15.4 µM],?,-0.5%,6%,?
COc1ccc(C(=O)NCc2nnc(SCC(=O)N3CCCC3)o2)cc1,11,6,7%,-1.0,-2.0%,12%,6%
O=C(NC1CCCCCCC1)c1cccnc1,23,19,-2%[15.4 µM],-1.3,0.4%,10%,31%[activator]
CC(=O)Nc1ccc(S(=O)(=O)Nc2cccc3[nH]ncc23)cc1,-1,11,-5%[15.4 µM],1.0,nt,8%,9%
COc1ccc2c(COC(=O)CNS(=O)(=O)c3ccccc3)cc(=O)oc2c1,nt,7,?,nt,3.6%,-6%,nt
CC1(C)CC(=O)C(C2NCCc3ccccc32)=C(O)C1 (centres undefined),2,-4,13%,1.4,-1.5%,12%,12%
O=C(CCn1c(=O)[nH]c2ccccc2c1=O)NCCCN1CCN(c2cccc(Cl)c2)CC1,-25,17,?,-2.4,-3.2%,11%,-11%
Cn1c(=N)n(CC(=O)c2ccc(Cl)c(Cl)c2)c2ccccc21,2,3,2%,-1.7,-4.4%,-10%,-27%
FC(F)c1nc2ccccc2[nH]1,-9,14,-8%[15.4 µM],-0.3,nt,6%,?
Cc1oc2c(CN3CCC(C)CC3)c(O)ccc2c(=O)c1-c1ccccc1,-22,8,18%,0.1,3.8%,-1%,15%
CC(=O)Nc1nn(CC(C)C)c2nc3ccc(C)cc3cc12,nt,-13,-44%[inhibitor],nt,-12%,nt,nt
CC/C(=N/Nc1ccccc1)c1cnnc(SC)n1,0,10,-1%,-0.5,0.8%,-1%,3%
NS(=O)(=O)c1ccc(-c2cccc(/C=C3\SC(=O)NC3=O)c2)cc1,21,-3,-12%,3.6,0.3%,?,2%
CCOC(=O)Cc1csc(NC(=O)CSc2nc(N)c3c(C)c(C)sc3n2)n1,7,7,?,-0.6,-2.8%,6%,-3%
Cc1nn(C(=O)Cn2ccc([N+](=O)[O-])n2)c(C)c1Cl,-14,4,9%[15.4 µM],9.4,-0.3%,13%,19%
COc1ccc(CN2CCN(C(=O)c3ccc(S(=O)(=O)N4CCCCCC4)cc3)CC2)cc1F,-36,20,-53%[inhibitor],nt,0.2%,-23%,nt
Cc1cc(C)cc(C(=O)OCC(=O)NC2CCCC2)c1,-12,nt,9%,-1.0,-1.2%,-9%,9%
CCN(C(=O)CSc1nc2cc(C(=O)O)ccc2c(=O)n1Cc1ccccc1)c1ccccc1,25,nt,3%,9.7,-7.4%,?,-7%
COc1cc(OC)c(OC)cc1/C=C/C(=O)c1ccc(NS(=O)(=O)c2ccc(C)cc2)cc1,24,24,-11%,?,1.5%,?,3%
CC1(c2ccc3c(c2)OCO3)NC(=O)N(CC(=O)Nc2ccccc2)C1=O (centres undefined),-13,-10,1%,nt,-3.0%,8%,nt
CCOC(=O)c1c(CN2CCOCC2)n(-c2ccccc2)c2cc(Br)c(OC)cc12,24,51,-15%,2.4,-0.5%,?,-23%
CC(C)(C)OC(=O)N1CCCN(C(=O)Nc2ccc(C(F)(F)F)cc2)CC1,-10,23,3%,2.1,nt,-7%,2%
CN(CC(=O)Nc1ccc(Cl)c(C(F)(F)F)c1)C(=O)c1cccs1,0,10,-4%[15.4 µM],nt,nt,-8%,nt
O=S(=O)(c1ccc2c(c1)OCCO2)N(Cc1ccc(F)cc1)Cc1nnc(-c2cccs2)o1,10,36,-20%,0.0,-6.6%,-14%,-6%
CCC(Cc1ccccc1)NCc1c(C(=O)O)c(C)n(Cc2ccccc2)c1C (centres undefined),8,7,-44%[inhibitor],0.2,-0.1%,2%,18%
C(=NOCCc1ccccc1)c1ccncc1,nt,2,9%[15.4 µM],nt,-3.3%,4%,nt
Cc1ccc(NC(=O)C2CCN(S(=O)(=O)c3cnc[nH]3)CC2)nc1,-2,-10,17%,4.1,-0.1%,8%,15%
CC(C)c1nc2ccccc2n1CCC(=O)O,1,-12,?,2.8,-0.3%,2%,13%
CN(C)c1ccc(/C=N/N(CCO)C2=NS(=O)(=O)c3ccccc32)cc1,0,0,10%,?,2.0%,-14%,6%
COc1ccc(/C=C/C(=O)OCC(=O)N2CC(=O)Nc3ccccc32)cc1S(=O)(=O)N1CCOCC1,18,-13,3%,-2.9,1.7%,-7%,-1%
COc1ccc(/C=C/C(=O)NCCCNC(=O)/C=C/c2ccc(OC)c(OC)c2)cc1OC,nt,1,?,nt,nt,0%,nt
O=C(Nc1ccc(Oc2ccc(NC(=O)c3ccco3)c(NC(=O)c3ccco3)c2)cc1)c1ccco1,14,-2,-8%,-1.7,-5.7%,-2%,26%
Cc1ccccc1C(=O)c1c[nH]c(C(=O)NCc2ccco2)c1,-1,-2,-23%,0.2,4.1%,9%,15%
Cc1cc(C(=O)C(=O)O)c(C)n1-c1ccc(Cl)cc1,3,7,-1%,0.5,nt,-5%,19%
Cc1ccc(C(=O)NCC(=O)NCC(c2ccco2)N2CCCCC2)cc1C (centres undefined),-2,-1,-1%,nt,-2.1%,14%,nt
COc1ccc(-n2nnc3c(=O)n(CC(=O)Nc4cc(C)on4)cnc32)cc1OC,0,-5,21%,-0.8,nt,2%,7%
COc1cc(OC)cc(C(=O)O/N=C(\N)c2cccc(C)c2)c1,7,5,10%,-2.8,-3.3%,4%,-2%
O=C(NCC(c1ccco1)N1CCN(c2ccc(F)cc2)CC1)OCc1ccccc1 (centres undefined),-13,2,-14%[15.4 µM],5.3,-0.1%,-24%,12%
Nc1ccc(-c2nc3ncccc3o2)cc1,7,-8,15%,-1.4,4.1%,-8%,3%
CCOc1cc2c(cc1OC)C(c1cccc([N+](=O)[O-])c1)NCC2 (centres undefined),-6,29,0%,-2.3,1.7%,7%,0%
COC(=O)[C@@H]1C[C@@]2(O)[C@H](O)[C@H](O)[C@H](O)C[C@H]2N1C/C=C/c1ccccc1,?,4,-12%,-4.3&-3.2,1.4%,8%,7%&2%
CC(=O)C1=C(O)CC(c2ccccc2)CC1=NCCc1ccccc1 (centres undefined),-14,-2,-11%[15.4 µM],-0.2,-1.0%,-14%,-14%
O=C(O)CCC(=O)N1CN2CN(C(=O)CCC(=O)O)CC([N+](=O)[O-])(C2)C1,nt,-17,-8%[15.4 µM],-0.3,nt,11%,15%
CC(C)c1ccc(S(=O)(=O)N2CCC3(CC2)OCCO3)cc1,-10,-5,13%[15.4 µM],-3.2,-1.3%,-10%,6%

# Next section:
SMILES,TRPV1 PAM,TRPML1 inh,gsp agonist,Menin MLL FP FL,ClpP mod,gsp antag,Sfp PPTase inh
CC(C)C(NS(=O)(=O)c1cccc2nsnc12)C(=O)NCCC1=CCCCC1 (centres undefined),2,26,7%,2.1,-2.1%,2%,14%
COc1ccc(NC(=O)NNC(=O)c2ccc(-c3ccccc3)cc2)cc1,3,25,27%,4.3,-1.7%,5%,-17%
O=C(c1ccco1)N(Cc1ccc(Cl)cc1)C1CCS(=O)(=O)C1 (centres undefined),23,-9,22%,nt,-3.7%,-8%,19%
COc1ccccc1CNC(=O)COC(=O)c1cccc(S(=O)(=O)N2CCCC2)c1,2,10,2%,nt,1.9%,7%,16%
Cn1c(CNC(=O)c2ccco2)nnc1SCC(=O)N1CCN(c2ccccc2F)CC1,19,-2,5%,-9.3,nt,2%,11%
O=C(Cn1cncn1)c1ccc(F)cc1F,-4,16,0%,3.3,-0.1%,11%,3%
CCCCOC(=O)c1ccc(NC(=O)c2cnccn2)cc1,-11,-13,21%,5.1,3.4%,-4%,3%
COc1ccc(Nc2ncnc3ccccc23)cc1,-17,22,-29%,4.2,0.9%,0%,1%
